Yeast UUG start: modulators of yeast start codon fidelity, primary screen, whole organism, S. cerevisiae, single point, plate reader | 350,000 tested, 0.13% active | AID 602363, 2012 | S. cerevisiae UUG-firefly luciferase reporter, luminescence/redox ratio | activity score, % at 18.7 µM;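 active = replicate mean at a twofold rise or more, about +100% in these data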;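 note: firefly luciferase made from a UUG start codon reports start codon fidelity; reporter light over untreated wells divided by growth signal over untreated wells; some hits fall short of that in this replicate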
HIV Env fusion: inhibitors of HIV-1 Env-driven cell-cell fusion, primary screen, HeLa-JRFL effector, CEM21 target cells, luciferase; inhibition, % at 12.3 µM; 360,000 tested, 1.1% active; AID 651610, 2012;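 active = mean replicate inhibition score of at least 50 and every replicate individually at or above 50; inconclusive = only one of the two criteria met; inactive = mean below 50 and not all replicates reaching 50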;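 note: 0% = plate neutral controls and 100% = maraviroc near 300 nM; one replicate is shown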
An asterisk follows results filed as active; ? = inconclusive; & = joins results of further samples; [ ] = remark or other dose. An excerpt; the hit share may differ from the screen's.

SMILES	Yeast UUG start	HIV Env fusion
C[C@@H]1CCCCO[C@@H](CN(C)C(=O)c2ccccc2)[C@@H](C)CN([C@H](C)CO)C(=O)c2cc(NC(=O)Nc3ccccc3)ccc2O1	-20	-14[16.7 µM]
COc1ccc(NC(=O)N(C)C[C@@H]2Oc3c(NC(=O)Nc4ccc5c(c4)OCO5)cccc3C(=O)N([C@H](C)CO)C[C@@H]2C)cc1	8	-7[16.7 µM]
C[C@@H]1CN([C@H](C)CO)S(=O)(=O)c2ccc(Br)cc2O[C@@H]1CN(C)CC1CCOCC1	-10	12[16.7 µM]
C[C@H](CO)N1C[C@H](C)[C@H](CN(C)C(=O)Nc2cccc3ccccc23)Oc2ccc(NC(=O)Nc3ccc(C(F)(F)F)cc3)cc2C1=O	-14	56*[16.7 µM]
C[C@@H]1CCCCO[C@H](CN(C)C(=O)c2ccccc2)[C@@H](C)CN([C@H](C)CO)C(=O)c2cc(NC(=O)Nc3cccc4ccccc34)ccc2O1	-18	-26[16.7 µM]
CC(=O)N(C)C[C@H]1Oc2ncc(-c3ccc(C(=O)N(C)C)cc3)cc2C(=O)N([C@@H](C)CO)C[C@@H]1C	27	-1[16.7 µM]
C[C@@H]1CN([C@@H](C)CO)C(=O)c2cccc(NC(=O)C3CCOCC3)c2O[C@@H]1CN(C)Cc1ccc2c(c1)OCO2	-12	3[16.7 µM]
C[C@@H]1CN([C@@H](C)CO)C(=O)c2cc(C#CCN(C)C)cnc2O[C@H]1CN(C)C(=O)Nc1cccc(F)c1	23	-11[16.7 µM]
C[C@H]1CN([C@@H](C)CO)C(=O)Cc2cc(NC(=O)Nc3ccc(C(F)(F)F)cc3)ccc2O[C@H]1CN(C)Cc1ccc(Oc2ccccc2)cc1	-3	12[16.7 µM]
O=C(C[C@H]1CC[C@H](NC(=O)c2ccc(F)cc2)[C@H](CO)O1)NCCc1ccccc1	-3	-12[16.7 µM]
C[C@@H]1CN([C@H](C)CO)C(=O)Cc2cc(NC(=O)Nc3ccccc3)ccc2O[C@H]1CN(C)Cc1ccc(-c2ccccc2)cc1	7	10[16.7 µM]
C[C@H](CO)N1C[C@H](C)[C@H](CN(C)C(=O)Cc2ccccc2)OCCCC[C@H](C)Oc2ccc(NS(=O)(=O)c3cccs3)cc2C1=O	8	-31[16.7 µM]
Cc1ccc(S(=O)(=O)Nc2ccc3c(c2)C(=O)N([C@@H](C)CO)C[C@@H](C)[C@H](CN(C)C(=O)Nc2c(C)noc2C)O3)cc1	-8	10[16.7 µM]
C[C@@H]1CN([C@@H](C)CO)C(=O)c2cc(NS(=O)(=O)c3ccc(Cl)cc3)ccc2O[C@@H]1CN(C)C(=O)Nc1cccc2ccccc12	-4	13[16.7 µM]
C[C@H](CO)N1C[C@H](C)[C@@H](CN(C)C(=O)Nc2ccc(F)cc2)Oc2ccc(NC(=O)Nc3ccccc3)cc2CC1=O	-5	33[16.7 µM]
COc1cccc(S(=O)(=O)Nc2ccc3c(c2)C(=O)N(C)C[C@H](OC)[C@@H](C)CN[C@H](C)CO3)c1	0	13[16.7 µM]
Cc1ccc(S(=O)(=O)N(C)C[C@H]2Oc3ccc(NS(=O)(=O)c4cccs4)cc3C(=O)N([C@@H](C)CO)C[C@H]2C)cc1	9	11[16.7 µM]
CC(=O)NCCC(=O)Nc1cc(S(=O)(=O)N2CCCCC2)ccc1N1CCCCC1	-22	10
COc1ccc(S(=O)(=O)Nc2ccc3c(c2)CC(=O)N([C@@H](C)CO)C[C@@H](C)[C@@H](CN(C)C(=O)Nc2ccccc2)O3)cc1	28	-28[16.7 µM]
C[C@H]1CN([C@@H](C)CO)C(=O)c2cccc(NS(=O)(=O)c3ccccc3)c2O[C@H]1CN(C)S(=O)(=O)c1ccc(F)cc1	-9	-8[16.7 µM]
C[C@@H]1CN([C@H](C)CO)C(=O)c2cc(-c3ccc(F)cc3)cnc2O[C@H]1CN(C)C(=O)Nc1ccc(F)cc1	-5	-3[16.7 µM]
Cc1ccc(S(=O)(=O)N(C)C[C@@H]2Oc3c(NC(=O)Nc4c(C)noc4C)cccc3C(=O)N([C@H](C)CO)C[C@@H]2C)cc1	-4	?
C[C@H](CO)N1C[C@H](C)[C@@H](CN(C)C(=O)C2CCCCC2)Oc2ncc(-c3ccccc3)cc2C1=O	-3	33[16.7 µM]
Cc1ccccc1-c1cnc2c(c1)C(=O)N([C@@H](C)CO)C[C@H](C)[C@H](CN(C)Cc1cccnc1)O2	-10	9[16.7 µM]
Cc1noc(C)c1NC(=O)Nc1ccc2c(c1)CC(=O)N([C@H](C)CO)C[C@H](C)[C@@H](CN(C)C(=O)Nc1ccc(F)cc1)O2	9	10[16.7 µM]
O=C(Nc1ccc2c(c1)OCO2)N[C@@H]1CC[C@@H](CCNC(=O)C2CCC2)O[C@@H]1CO	8	-14[16.7 µM]
COc1cccc(C(=O)Nc2ccc3c(c2)C(=O)N(C)[C@H]2CC[C@@H](CC(=O)NCc4ccc(F)cc4)O[C@@H]2CO3)c1	8	23[16.7 µM]
C[C@@H]1CCCCO[C@@H](CN(C)Cc2ccc(C(F)(F)F)cc2)[C@H](C)CN([C@H](C)CO)C(=O)c2cc(NC(=O)c3ccncc3)ccc2O1	7	24[16.7 µM]
COc1ccc(NC(=O)N(C)C[C@H]2Oc3c(NS(=O)(=O)c4ccc(F)cc4)cccc3C(=O)N([C@@H](C)CO)C[C@@H]2C)cc1	5	2[16.7 µM]
C[C@H]1CN([C@@H](C)CO)C(=O)c2cc(C#Cc3ccccc3F)cnc2O[C@H]1CN(C)S(=O)(=O)c1ccccc1F	-11&5	42[16.7 µM]
C[C@@H](O)C#Cc1ccc2c(c1)O[C@@H](CN(C)C)[C@@H](C)CN([C@@H](C)CO)S2(=O)=O	-14	-2[16.7 µM]
C[C@@H]1CN([C@@H](C)CO)C(=O)c2cc(/C=C/c3ccccc3)cnc2O[C@H]1CN(C)Cc1ccc2c(c1)OCO2	-1	21[16.7 µM]
COCC(=O)N[C@H]1CC[C@H](CC(=O)NCc2ccc(Cl)cc2)O[C@@H]1CO	-1	13[16.7 µM]
C[C@H]1CN([C@@H](C)CO)C(=O)Cc2cc(NC(=O)Cc3ccccc3)ccc2O[C@@H]1CN(C)C(=O)Nc1cccc2ccccc12	4	11[16.7 µM]
CCCC#Cc1cnc2c(c1)C(=O)N([C@@H](C)CO)C[C@@H](C)[C@@H](CN(C)C(=O)c1cccc(F)c1)O2	5	7[16.7 µM]
C[C@@H]1CN([C@@H](C)CO)C(=O)c2cc(-c3cccc(F)c3)cnc2O[C@@H]1CN(C)CC1CCOCC1	0	-26[16.7 µM]
C[C@@H]1CCCCO[C@H](CN(C)C(=O)CCCN(C)C)[C@@H](C)CN([C@H](C)CO)C(=O)c2cc(NS(=O)(=O)c3cccs3)ccc2O1	-9	5[16.7 µM]
Cc1noc(C)c1S(=O)(=O)N(C)C[C@@H]1Oc2ccc(NC(=O)Cc3ccccc3)cc2CC(=O)N([C@@H](C)CO)C[C@@H]1C	5	12[16.7 µM]
C[C@H]1CN([C@@H](C)CO)C(=O)c2cc(NS(=O)(=O)c3ccccc3)ccc2O[C@@H]1CN(C)C(=O)Nc1ccccc1	-4	-6[16.7 µM]
CC(C)C#Cc1cnc2c(c1)C(=O)N([C@@H](C)CO)C[C@@H](C)[C@H](CN(C)C(=O)Nc1ccccc1F)O2	1	-2[16.7 µM]
CCC(=O)N[C@H]1CC[C@@H](CC(=O)NCC2CCCCC2)O[C@@H]1CO	-10	-19[16.7 µM]
C[C@@H]1CCCCO[C@H](CN(C)C(=O)NC2CCCCC2)[C@H](C)CN([C@@H](C)CO)C(=O)c2cc(NC(=O)Nc3cccc4ccccc34)ccc2O1	-3	-4[16.7 µM]
O=C1CSC(c2ccccc2)N1c1cccc(Cl)c1 (stereo unspecified)	-6	-10[16.7 µM]
COc1ccc(S(=O)(=O)Nc2cccc3c2O[C@H](CN(C)CC2CCCCC2)[C@H](C)CN([C@@H](C)CO)C3=O)cc1	14	-10[16.7 µM]
O=C(CCN1CCCCC1)NCC[C@H]1CC[C@@H](NC(=O)Cc2cccnc2)[C@@H](CO)O1	1	11[16.7 µM]
CCN(C(=S)Nc1cccc2ccccc12)c1ccccc1	-6	-9
C[C@H]1CCCCO[C@H](CN(C)Cc2ccc(C(=O)O)cc2)[C@@H](C)CN([C@@H](C)CO)C(=O)c2cc(NC(=O)Nc3ccc(F)cc3)ccc2O1	0	1[16.7 µM]
C[C@@H]1CN([C@H](C)CO)C(=O)c2cc(NC(=O)C3CCCCC3)ccc2O[C@@H](C)CCCCO[C@@H]1CN(C)C(=O)Cc1ccccc1	8	9[16.7 µM]
C[C@H](O)C#Cc1cnc2c(c1)C(=O)N([C@H](C)CO)C[C@@H](C)[C@H](CN(C)CC1CCCCC1)O2	5	-7[16.7 µM]
C=C/C=C/[C@@H]1C(=C)CN2[C@H]1[C@H](Cc1ccccc1)OC(=O)[C@@H]2Cc1ccccc1	-3	-16[16.7 µM]
Cc1cc(C(=O)Nc2cccc3c2O[C@H](CN(C)S(=O)(=O)c2ccc(Cl)cc2)[C@H](C)CN([C@H](C)CO)C3=O)n(C)n1	-5	-4[16.7 µM]
C[C@@H]1CN([C@@H](C)CO)C(=O)c2cc(NC(=O)c3ccncc3)ccc2O[C@@H](C)CCCCO[C@H]1CN(C)S(=O)(=O)c1cccs1	2	-20[16.7 µM]
CN(C)C(=O)c1ccc(-c2ccc([C@H]3[C@@H](C#N)N(C(=O)C4CCOCC4)[C@H]3CO)cc2)cc1	6	-1[16.7 µM]
C[C@@H]1CN([C@H](C)CO)S(=O)(=O)c2ccc(C#Cc3ccccc3)cc2O[C@@H]1CN(C)C(=O)Cc1ccccn1	16	-28[16.7 µM]
C[C@@H]1CN([C@@H](C)CO)C(=O)c2cc(NC(=O)CCCN(C)C)ccc2O[C@@H](C)CCCCO[C@@H]1CN(C)S(=O)(=O)c1cccs1	5	-3[16.7 µM]
C/C=C/c1ccc2c(c1)O[C@H](CN(C)C(=O)c1ccccn1)[C@@H](C)CN([C@H](C)CO)S2(=O)=O	-5	11[16.7 µM]
COc1cc(/C=C/C(=O)NNC(=O)c2cccc(S(=O)(=O)N(C)C)c2)cc(OC)c1OC	1	5
C[C@@H]1CCCCO[C@@H](CN(C)C(=O)Nc2ccc(F)cc2)[C@H](C)CN([C@@H](C)CO)C(=O)c2cc(NC(=O)Nc3ccc(C(F)(F)F)cc3)ccc2O1	-19	17[16.7 µM]
O=C1O[C@@H](c2ccccc2)[C@@H](c2ccccc2)N2[C@@H](c3ccccc3OCCO)[C@]3(C(=O)Nc4ccc(C#CCCO)cc43)[C@@H](C(=O)N3CCCCCCC3)[C@H]12	4	-17[16.7 µM]
C[C@@H]1CN([C@@H](C)CO)C(=O)c2cc(-c3ccccc3F)cnc2O[C@@H]1CN(C)C(=O)C1CCCCC1	2	-5[16.7 µM]

For convenience, eleven of the compounds above:
SMILES	Yeast UUG start	HIV Env fusion
COc1ccc(S(=O)(=O)Nc2cccc3c2O[C@H](CN(C)CC2CCCCC2)[C@H](C)CN([C@@H](C)CO)C3=O)cc1	14	-10[16.7 µM]
O=C(CCN1CCCCC1)NCC[C@H]1CC[C@@H](NC(=O)Cc2cccnc2)[C@@H](CO)O1	1	11[16.7 µM]
CCN(C(=S)Nc1cccc2ccccc12)c1ccccc1	-6	-9
C[C@H]1CCCCO[C@H](CN(C)Cc2ccc(C(=O)O)cc2)[C@@H](C)CN([C@@H](C)CO)C(=O)c2cc(NC(=O)Nc3ccc(F)cc3)ccc2O1	0	1[16.7 µM]
C[C@@H]1CN([C@H](C)CO)C(=O)c2cc(NC(=O)C3CCCCC3)ccc2O[C@@H](C)CCCCO[C@@H]1CN(C)C(=O)Cc1ccccc1	8	9[16.7 µM]
C[C@H](O)C#Cc1cnc2c(c1)C(=O)N([C@H](C)CO)C[C@@H](C)[C@H](CN(C)CC1CCCCC1)O2	5	-7[16.7 µM]
C=C/C=C/[C@@H]1C(=C)CN2[C@H]1[C@H](Cc1ccccc1)OC(=O)[C@@H]2Cc1ccccc1	-3	-16[16.7 µM]
Cc1cc(C(=O)Nc2cccc3c2O[C@H](CN(C)S(=O)(=O)c2ccc(Cl)cc2)[C@H](C)CN([C@H](C)CO)C3=O)n(C)n1	-5	-4[16.7 µM]
C[C@@H]1CN([C@@H](C)CO)C(=O)c2cc(NC(=O)c3ccncc3)ccc2O[C@@H](C)CCCCO[C@H]1CN(C)S(=O)(=O)c1cccs1	2	-20[16.7 µM]
CN(C)C(=O)c1ccc(-c2ccc([C@H]3[C@@H](C#N)N(C(=O)C4CCOCC4)[C@H]3CO)cc2)cc1	6	-1[16.7 µM]
C[C@@H]1CN([C@H](C)CO)S(=O)(=O)c2ccc(C#Cc3ccccc3)cc2O[C@@H]1CN(C)C(=O)Cc1ccccn1	16	-28[16.7 µM]

The list goes on.
SMILES	Yeast UUG start	HIV Env fusion
CCCNC(=O)C[C@H]1CC[C@H]2[C@@H](COc3ccc(NC(=O)Nc4cccc(C)c4)cc3C(=O)N2C)O1	14	1[16.7 µM]
C[C@H](O)C#Cc1ccc2c(c1)O[C@@H](CN(C)CC1CCCC1)[C@H](C)CN([C@@H](C)CO)S2(=O)=O	13	-37[16.7 µM]
CC(C)CC#Cc1cnc2c(c1)C(=O)N([C@H](C)CO)C[C@H](C)[C@H](CN(C)S(C)(=O)=O)O2	13	-85[16.7 µM]
Cc1ccc(S(=O)(=O)N[C@H]2CC[C@H](CCn3cc(C(C)C)nn3)O[C@H]2CO)cc1	-2	-3[16.7 µM]
C[C@H](CO)N1C[C@H](C)[C@@H](CN(C)C(=O)C2CCCCC2)Oc2ncc(/C=C/c3ccccc3)cc2C1=O	8	-3[16.7 µM]
O=C(CCN1CCCCC1)NCC[C@@H]1CC[C@@H](NC(=O)c2ccc(F)cc2)[C@@H](CO)O1	-1	-11[16.7 µM]
